Source: PubChem (ICCB-Longwood Screening Facility, Harvard Medical School)
fixLJ activator: activators of Burkholderia fixLJ two-component system, primary screen, B. multivorans, GFP reporter | z-score (concentration not given with the values) | 29,000 tested, 0.3% active | AID 1918990, 2023 | B. multivorans fixK-promoter GFP reporter, 18 h; hits give high values;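 active means replicate mean overnight rise in green fluorescent reporter signal, 3 or more SD over negative controls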;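 further: score is relative to vehicle wells of the plate; 300 nL library stock went into each well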
* marks the source's active call; other numbers are inactive results. The list is partial; the hit share may differ from the screen's.

Structure	fixLJ activator
CCCCc1nc2ccccc2n2c(-c3ccc(OC)cc3)c3c(=O)n(C)c(=O)n(C)c3c12	-1.61
c1ccc(C2(c3nc(C4(N5CCOCC5)CCCCC4)n[nH]3)CC2)cc1	-0.71
CCn1nnc(-c2cccc(NC(=O)NCCCn3ccnc3)c2)n1	-1.42
CCOc1ccccc1NC(=O)CSc1nc2c(oc3ccccc32)c(=O)n1-c1ccc(F)cc1	-1.46
CCc1cccc(NC(=O)CSc2nc3ccccc3nc2N2CCCCC2)c1	1.18
CN1CCOC(CNC(=O)c2ccc(-c3ccc(O)c(Cl)c3)cc2)C1 (stereo not drawn)	0.75
CCc1ccc(S(=O)(=O)N2CCN(c3ccc(Cl)c(Cl)c3)CC2)cc1	0.33
CCCN1CC(NC(=O)CCCc2nc(-c3cccnc3)no2)CC1=O (stereo not drawn)	0.14
Cn1c(CN2CCCC2)nnc1C1CCN(c2cc(C3CC3)ncn2)CC1	-0.08
CCOc1nc(NC(=O)NS(=O)(=O)Oc2ccccc2Cl)nc(-c2ccccc2)n1	-1.72
Clc1cccc(N2CCN(c3nc4ccccc4c4nc(-c5cccnc5)nn34)CC2)c1	-0.68
CCOC(=O)c1[nH]c2c(c1Cc1ccccc1OC)C(=O)CC(c1ccccc1)C2 (stereo not drawn)	-1.44
CSc1nc2sc3c(c2c(=O)n1-c1ccc(C)c(Cl)c1)CCN(C(C)=O)C3	-0.07
Cc1cccc(NC(=O)CCN2CCN(c3ccccc3F)CC2)c1	-0.35
CCc1ccccc1NC(=O)c1cc(-c2ccc(Cl)s2)nc2ccccc12	-1.28
CCOc1ccc(NC(=O)c2c(NC(=O)c3cccs3)sc3c2CCC(C(C)(C)C)C3)cc1 (stereo not drawn)	0.17
Cc1cccc(NC(=O)CCC2CCN(C(=O)CCCc3cn[nH]c3)CC2)c1	1.38
Cc1ccc(NC(=O)C(Cc2ccccc2)NS(=O)(=O)c2ccc3c(c2)c(=O)n(C)c(=O)n3C)c(C)c1 (stereo not drawn)	-0.27
CCN(CC)c1ccc(NC(=O)CCc2c(C)nc3ncnn3c2C)c(C)c1	-1.12
COCCCN1C(=O)c2[nH]nc(-c3ccccc3O)c2C1c1ccc(OCc2ccccc2)cc1 (stereo not drawn)	-0.62
CCN1CC[C@@H]2CC(N3CCOCC3)CC[C@@]2(C(=O)NCc2ccc(C(=O)OC)cc2)C1 (stereo partly drawn)	-0.35
Cc1nccn1CC1(CNC(=O)c2cccc(-c3cnc(N)cn3)c2)CC1	-2.5
Cc1c(Cl)cccc1NC(=O)Cn1c(CCC(=O)O)ccc1-c1cccs1	-0.45
Cc1ccc(C)c(Cn2c(=O)n(CCCCC(=O)NCc3ccccc3Cl)c(=O)c3ccccc32)c1	2.02
CCCN(Cc1ccc(OC)cc1)C(=O)CCNS(C)(=O)=O	0.92
CSc1ncccc1C(=O)N1CCN(C(=O)c2ccc[nH]2)CC1	-1.39
CCCc1nc(C(=O)N2CCC3(CC2)c2nc[nH]c2CCN3C)cs1	-0.38
CCCC1=Nc2cc(C(=O)NC3CCC(C)CC3)ccc2Sc2ccccc21 (stereo not drawn)	-0.86
CCOc1ccc(C2c3cc(OCC)c(OCC)cc3CC(=O)N2c2ccc(C(=O)O)cc2)cc1OCC (stereo not drawn)	-1.75
CCC(=O)N1c2ccc(S(=O)(=O)CCC(=O)NCc3ccccc3OC)cc2CC1C (stereo not drawn)	-1.85
COc1ccc2c(c1)cc1c(=O)n(CC(=O)NCCCOC(C)C)nc(C)n12	-0.59
O=C(N1CCC2(CC1)OCCc1c2[nH]c2ccccc12)C1(CO)CC1	0.32
COc1ccc(N(CC(=O)N2CCN(c3cccc(Cl)c3)CC2)S(=O)(=O)c2c(C)noc2C)cc1	0.68
COc1cc2c(cc1NC(=O)COc1ccc(Cl)cc1)oc1ccccc12	-0.06
Cc1ccc(S(=O)(=O)c2nc(-c3cccc(Cl)c3)oc2NCc2ccccc2)cc1	-0.3
O=C(CCn1cnc2ccccc21)NCc1cn[nH]c1-c1ccc(F)cc1	0.13
O=C(NCc1ccc(F)cc1)c1ccc2c(c1)N(Cc1c(F)cccc1Cl)C(=O)CS2	-0.66
Cc1ccc(S(=O)(=O)N2CCCC2C(=O)Nc2ccc(Br)cc2)cc1 (stereo not drawn)	0.74
Cc1nc(C(C)NC(=O)COCc2nc3c(C)cccc3[nH]2)c(C)s1 (stereo not drawn)	-0.08
CCOc1ccc(-n2c(=O)c3sc4ccccc4c3n(Cc3cccc(C)c3)c2=O)cc1	2.35
Cc1ccc(-c2nnc(Nc3ccc(Br)cc3)c3ccccc23)cc1S(=O)(=O)NCC1CCCO1 (stereo not drawn)	0.36
O=C(Cn1cnc2ccccc2c1=O)NCCC(=O)Nc1ccc(F)cc1	-0.17
COc1ccc(Nc2nc(N)nc(CSc3nc4cc(OC)ccc4s3)n2)cc1	1.39
Cn1c(=O)n(C)c2cc(N3CCOCC3)c(NS(=O)(=O)c3ccc(Br)cc3)cc21	0.01
CC(=O)N1CCN(c2ccc(OCC3CO[C@](Cn4ccnc4)(c4ccc(Cl)cc4Cl)O3)cc2)CC1 (stereo partly drawn)	-0.11
COCCn1c(=N)c(C(=O)NC(C)c2ccccc2)cc2c(=O)n3cc(C)ccc3nc21 (stereo not drawn)	-2.47
CCOC(=O)c1cc2c(=O)n3ccccc3nc2n(CC2CCCO2)c1=NC(=O)c1ccccc1C (stereo not drawn)	-0.2
Cc1cc2ncc(C(=O)N3CCCC(OCc4ccccn4)C3)c(=O)n2[nH]1 (stereo not drawn)	-0.1
COc1cccc(CNC(=O)C(C)(C)N2CCCC2)c1OC	-0.85
CCOc1ccc(N(C(C)C(=O)NCCSc2ccc(C)cc2)S(C)(=O)=O)cc1 (stereo not drawn)	-1.5
COc1ccc(-c2nc(SCC(=O)NC3CCCC3)c(-c3ccc(OC)cc3)[nH]2)cc1	-1.65
CCOC(=O)N1CCc2c(sc3c2c(=O)n(Cc2ccccc2)c(=O)n3Cc2c(F)cccc2Cl)C1	-0.11
Cc1ccc2c(c1)C(c1ccccc1)N(C(=O)COc1ccc(Cl)cc1Cl)CC(=O)N2 (stereo not drawn)	0.42
COc1ccc(-c2[nH]c(-c3cccc(OC)c3)nc2SCC(=O)NC2CCCC2)cc1	0.51
CC(=O)Nc1ccc(N(C(=O)Cn2nnc3ccccc32)C(C(=O)NCc2ccccc2)c2ccc(C)cc2)cc1 (stereo not drawn)	-1.5
COc1ccccc1NC(=O)C1=C(C)Nc2nc(SCc3ccccc3)nn2C1c1cccnc1 (stereo not drawn)	-1.33

The list goes on:
Structure	fixLJ activator
CCOC(=O)c1ccc(NC(=O)Nc2ccc3snnc3c2)cc1	-1.17
COCCNC(=O)Cn1c(=O)n(-c2ccc(C)c(C)c2)c(=O)c2c3c(sc21)CCCCC3	-0.6
CN(C(=O)c1ccc2c(Cl)c3c(nc2c1)CCC3)c1ccccc1F	1.54
COc1cccc(CNC(=O)c2cc(=O)[nH]c3ccc(S(=O)(=O)N4CCCC4)cc23)c1	-0.78
Cc1ccc(CNc2nc3ccccc3c3nc(-c4cccc(C)c4)nn23)cc1	-0.21
CC1CCC(NC(=O)Cn2ncc3c4ccccc4n(Cc4ccc(Cl)cc4)c3c2=O)CC1 (stereo not drawn)	2.94
Cc1ccc(CN2CCN(C(=O)c3ccccc3C#N)C(C)C2=O)cc1 (stereo not drawn)	-2.06
CCc1ccc(NC(=O)C2CCCN(S(=O)(=O)c3cccc4nsnc34)C2)cc1 (stereo not drawn)	-1.35
Cc1ccccc1NC(=O)CN(c1ccc(Cl)cc1Cl)S(=O)(=O)c1ccccc1	-0.77
O=C(C1CCCC1)N1CC2CN(Cc3noc(C4CC4)n3)C[C@]2(C(=O)O)C1 (stereo partly drawn)	-1.51
CCc1nn2c(=O)cc(COc3ccc(/C=C(\C#N)C(=O)Nc4ccc(F)cc4)cc3OC)nc2s1	-2.24
CN(C(=O)Cn1nc(Cc2cccnc2)c2ccccc2c1=O)c1cccc(C(F)(F)F)c1	0.03
CSc1ncc(CN2CCN(c3nc(C)cc(C)n3)CC2)cn1	0.49
CCOc1ccccc1C(=O)Nc1c(C(=O)Nc2ccc(F)cc2)oc2ccccc12	0.93
O=C(Nc1nc2ccc(Cl)cc2s1)c1cc(=O)c2ccccc2o1	-0.57
CN(C)c1ccc(CN(Cc2ccco2)C(=O)COc2ccc(F)cc2)cc1	-0.62
N[C@@H]1CCCC[C@H]1N.O=C(O)C(=O)O.[Pt]	-0.38
Cn1c2ccccc2c2cnn(CC(=O)NCCCN3CCCCC3)c(=O)c21	-1.14
NC1CN(C(=O)C2CCCN(C3CCN(Cc4cccnc4)CC3)C2)C1 (stereo not drawn)	0.36
COc1ccc(-n2c(=O)c3c4c(sc3n(Cc3ccccc3)c2=O)CCC4)c(OC)c1	-0.6
CCN(C(=O)CCS(=O)(=O)c1cc(Br)cc2c1N(C(=O)C1CC1)CC2)c1cccc(C)c1	-0.38
COC(=O)c1cc2occc2n1Cc1nc(-c2ccccc2C)oc1C	-0.63
CCCCC(CC)CNC(=O)CCCCCn1c(=O)[nH]c2ccsc2c1=O (stereo not drawn)	0.12
Cc1cc(N2CCN(C(=O)c3ccccc3)CC2)n2nc(C)c(C)c2n1	-0.83

Part of the list above in order of length of the SMILES, low to high:
Structure	fixLJ activator
COc1cc2c(cc1NC(=O)COc1ccc(Cl)cc1)oc1ccccc12	-0.06
Cc1ccc(CNc2nc3ccccc3c3nc(-c4cccc(C)c4)nn23)cc1	-0.21
CCOc1nc(NC(=O)NS(=O)(=O)Oc2ccccc2Cl)nc(-c2ccccc2)n1	-1.72
CCOc1ccc(-n2c(=O)c3sc4ccccc4c3n(Cc3cccc(C)c3)c2=O)cc1	2.35
CCOC(=O)c1cc2c(=O)n3ccccc3nc2n(CC2CCCO2)c1=NC(=O)c1ccccc1C (stereo not drawn)	-0.2

(list continues)
Structure	fixLJ activator
CCOc1ccc(NC(=O)c2c(NC(=O)c3ccco3)sc3c2CCC(C(C)(C)C)C3)cc1 (stereo not drawn)	-0.19
COc1cc(C(=O)Nc2ccccc2OCc2cc(=O)n3c(C)csc3n2)cc(OC)c1OC	0.02
Cc1cc(C)c(S(=O)(=O)Nc2cc(-c3cn4ccccc4n3)ccc2C)cc1C	0.05
COC(=O)c1cc2oc(C)cc2n1CC(=O)Nc1ccc(C)cc1C	-4.19
NCC(=O)CCC(=O)O	-2.53
Cc1cccc(NC(=O)c2ccc3snnc3c2)c1C	-2
COCCN1CC2(CCC1=O)CCN(c1noc(-c3ccccc3)n1)CC2	0.4
COc1ccc(CCNC(=O)Cn2c(=O)n(-c3cc(OC)c(OC)c(OC)c3)c(=O)c3ccccc32)cc1OC	0.07
COc1ccc(-c2nc(CNS(=O)(=O)c3cccc(F)c3)cs2)cc1	-1.4
COc1ccc(OC)c(-c2cc(C(=O)Nc3c(C)nn(Cc4ccc(C)cc4)c3C)no2)c1	-1.15
COc1cc(OC)c2c(C)c(CC(=O)NCCc3ccccc3OC)c(=O)oc2c1	-2.24
O=C(CCS(=O)(=O)c1cccs1)Nc1ccc(C(=O)Nc2ccccc2F)cc1	0.79
CCN(C(=O)Cn1c(=O)oc2cc(Cl)ccc21)c1cccc(C(F)(F)F)c1	-0.6
COc1cccc(C(=O)Nc2cc3cc(OC)ccc3oc2=O)c1	0.12
CCOC(=O)c1c(NC(=O)/C=C/c2ccc(C(C)C)cc2)sc2c1CCC2	0.13
O=C(CSc1nc(-c2ccc(Cl)cc2)nc2c1Cc1ccccc1O2)N1CCCCC1	0.12
O=C(CN1CCCCC1=O)N1CCC(n2cc(C3CCCCC3)nn2)CC1	0.51
CCCc1cc(=O)[nH]c(Nc2cc(Cl)ccc2OC)n1	-1.71
COc1ccc(C2CC(=O)c3cc(-c4nc(-c5cccc([N+](=O)[O-])c5)cs4)c(=O)n(-c4ccc(C)c(C)c4)c3C2)cc1 (stereo not drawn)	2
COC(C)(C)C(=O)N1CCn2nc(C(=O)Nc3ccccc3)cc2C1	-2.7
CCOC(=O)c1c(NC(=O)c2cc(-c3ccc(Cl)cc3)on2)sc2c1CCCC2	-0.93
COc1cccc(NC(=O)CCc2nc(-c3cccs3)no2)c1	-2.63
CCOC(=O)c1cc2c(=O)n3ccccc3nc2n(Cc2ccco2)c1=NC(=O)c1cc(C)cc(C)c1	-0.76
CCc1ccc(C(=O)c2cn(CC(=O)Nc3cc(OC)ccc3OC)c3ccc(C)cc3c2=O)cc1	-1.74
Cc1ccccc1C(=O)c1cccn1CC(=O)NCc1ccccc1	1.1
O=c1oc2ccccc2c(O)c1Cc1c(O)c2ccccc2oc1=O	-1.12
Cc1oc2ccc(O)c(CN3CCN(Cc4ccccc4)CC3)c2c1C(=O)Nc1cccc(Cl)c1C	-0.51
CCOc1ccc(CCNC(=O)CN2CCN(Cc3ccc(Cl)cc3)C2=O)cc1OCC	-0.66
CCn1c(Cn2cccn2)nnc1C1CCN(C(=O)c2ccncc2)CC1	-0.29
Cc1cccn2c(CN3CCC(N(C)C)C3)c(C(=O)N3CCOCC3)nc12 (stereo not drawn)	0.31
CCc1ccc(-n2nc(CO)c(C(=O)NCCCc3ccccc3)n2)cc1	1.5
CCc1ccc(C(=O)c2cn(CC(=O)Nc3ccc4c(c3)OCO4)c3ccc(CC)cc3c2=O)cc1	-0.85

Individual results from the entries so far.
CCOC(=O)c1cc2c(=O)n3ccccc3nc2n(CC2CCCO2)c1=NC(=O)c1ccccc1C (stereo not drawn) – fixLJ activator = -0.2
COc1cccc(CNC(=O)C(C)(C)N2CCCC2)c1OC – fixLJ activator = -0.85
